# Cruzain noTriton: blocks cruzain activity in detergent-free assay; P25779; purified cruzain, Z-FR-AMC fluorescence, no detergent; Potency, µM, for the others: max response, negative = inhibition, actives largely listed as inhibitors; 200,000 compounds, 2.3% hits;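 further: plate controls were enzyme without inhibitor for no effect and buffer without enzyme for full effect; nearly all actives have a fitted effect of over 40% in size; top concentration of the series not given in the record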
# Target sequence (P25779 123-467 limits assumed): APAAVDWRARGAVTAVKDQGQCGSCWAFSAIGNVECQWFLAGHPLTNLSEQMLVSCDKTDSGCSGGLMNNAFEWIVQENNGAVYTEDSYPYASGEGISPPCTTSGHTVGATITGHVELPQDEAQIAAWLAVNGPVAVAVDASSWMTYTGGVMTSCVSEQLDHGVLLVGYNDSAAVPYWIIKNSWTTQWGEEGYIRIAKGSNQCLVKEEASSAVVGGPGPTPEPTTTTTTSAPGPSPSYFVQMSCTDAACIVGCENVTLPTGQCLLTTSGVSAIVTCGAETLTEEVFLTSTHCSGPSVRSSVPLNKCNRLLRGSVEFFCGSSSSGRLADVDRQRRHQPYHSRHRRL
#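 Detergent-free condition (0.00005% Triton X-100) in acetate buffer pH 5.5 with DTT. 1.5 nM enzyme and compound were pre-mixed 15 min, then 2 uM Z-FR-AMC substrate added; reaction progress from fluorescence change between first and third reads (60 s).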
# StopGo reporter: FMDV 2A StopGo reporter, luciferase signal; human cells with a luciferase reporter of 2A StopGo recoding; control for the full effect not named in the record; Potency, µM (highest dose often 57.9 µM), for inactives: top-dose signal change, negative = less light; 410,000 compounds, 1.2% hits; AID 1159524; active = well fitted falling curve with a large enough effect; inconclusive = small, poorly fitted or top-dose-only effect; inactive = no such curve, though single readings can be large or run the other way; tested in HEK293T cells; further: on the % scale 0 is the no-effect control and ±100 the full control effect; nearly all actives have a fitted effect of over 45% in size; luciferase light after 4 h
# SARS PLP yeast: inhibitors of SARS-CoV papain-like protease in yeast; 330,000 compounds, 0.19% hits; Potency, µM (top dose mostly 32.9 µM), without a hit: at the highest dose activity, positive = growth rescue; S. cerevisiae expressing SARS-CoV PLpro, growth rescue; control for the full effect not named in the record; active means well fitted rising curve with a large enough effect; inconclusive means small, poorly fitted or top-dose-only effect; inactive means no such curve, though single readings can be large or run the other way; further: 0% is about no effect; nearly all actives have a fitted effect of over 55% in size; growth read by luminescence after 48 h
# RE007 growth inh: less growth of the S. pombe RE007 Vpr strain; S. pombe RE007 Vpr strain, BacTiter-Glo ATP luminescence, 24 h; control for the full effect not named in the record; Potency, µM (doses to about 92.2 µM), for the others: at the top dose activity change, negative = less growth; AID 651644; 360,000 compounds, 0.21% hits; active = well fitted falling curve with a large enough effect; inconclusive = small, poorly fitted or top-dose-only effect; inactive = no such curve, though single readings can be large or run the other way;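 further: on the % scale 0 is the no-effect control and ±100 the full control effect; nearly all actives have a fitted effect of over 50% in size; the assay follows cell death caused by Vpr and the record does not say whether a fall means rescue or toxicity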
#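 Fission yeast strain RE007, carrying one chromosomally integrated HIV-1 vpr copy, was seeded at OD 0.01 in PMG+AL medium with 23 nL pinned compound. After 24 h at 30 °C and 99% humidity, viability was read by BacTiter-Glo luminescence.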
# Marburg entry inh: Marburg virus entry inhibition. Marburg virus pseudotyped entry inhibition, cell reporter; control for the full effect not named in the record; about a third of the inactives were read at about 46 µM. Potency, µM (titrated, usually from 37.8 µM), inactives show top-dose activity change, negative = inhibition, most hits filed as inhibitors. 300,000 compounds, 1.8% hits. AID 540276; active = well fitted inhibition curve with a large enough effect; inconclusive = small, poorly fitted or top-dose-only effect, or effect the other way; inactive = flat fitted curve, though single readings scatter; tested in HEK293 cells; about a fifth of its hits are not listed in these tables; further: on the % scale 0 is the no-effect control and ±100 the full control effect; luciferase read-out
# Lassa entry inh: blocks Lassa virus binding to or entry into cells | Lassa virus pseudotype entry inhibition, cell reporter; control for the full effect not named in the record | Potency, µM (titrated, usually from 37.9 µM), for inactives: at the top dose activity change, negative = inhibition, most hits filed as inhibitors | 300,000 compounds, 1.2% hits; active means well fitted inhibition curve with a large enough effect; inconclusive means small, poorly fitted or top-dose-only effect, or effect the other way; inactive means flat fitted curve, though single readings scatter; tested in HEK293 cells; further: on the % scale 0 is the no-effect control and ±100 the full control effect; nearly all actives have a fitted effect of over 50% in size; luciferase read-out
# NS1 function inh: inhibitors of influenza NS1 protein function. S. cerevisiae slowed by influenza A NS1, growth recovery by OD600. Potency, µM (series often up to 46.1 µM), for inactives: at the highest dose activity, positive = more growth. 270,000 compounds, 0.4% hits. AID 2326; active means well fitted rising curve with a large enough effect; inconclusive means small, poorly fitted or top-dose-only effect; inactive means no such curve, though single readings can be large or run the other way; further: nearly all actives have a fitted effect of over 50% in size
#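 Compounds were scored for reversing the slow growth caused by influenza A NS1 in S. cerevisiae, measured by optical density at 600 nm. Assay medium contained 2% galactose at pH 6.0; NS1-free yeast of the same strain were the positive control.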
# Cruzain Triton: inhibitors of Trypanosoma cruzi cruzain with detergent; P25779; purified cruzain, Z-FR-AMC fluorescence, 0.01% Triton; Potency, µM, without a hit: max response, negative = inhibition, most hits filed as inhibitors; 200,000 compounds, 0.43% hits; AID 1478;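 further: plate controls were neutral wells for no effect and buffer without enzyme for full effect; nearly all actives have a fitted effect of over 40% in size; top concentration of the series not given in the record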
#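 In this qHTS format, compounds are incubated with 1.5 nM cruzain for 15 min at room temperature before 2 uM Z-FR-AMC is added. Release of AMC is followed at 360/450 nm, and progress is taken as the 60 s fluorescence difference.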
# The depositor's hits bear a star; u = inconclusive; x = not tested or not shown; & = joins results of further samples; [ ] = another dose, or the depositor's remark. Unless noted, the call rests on the fitted dose curve; in most records, active means well fitted curve in the direction sought with a large enough effect; inconclusive means small, poorly fitted or top-dose-only effect, or another doubt; inactive means no such curve, though single readings can be large; an effect the other way counts as inactive or inconclusive. Potency means the concentration at half of the fitted maximal effect.
SMILES,Cruzain noTriton,StopGo reporter,SARS PLP yeast,RE007 growth inh,Marburg entry inh,Lassa entry inh,NS1 function inh,Cruzain Triton
O=C(NCc1ccc(Cl)cc1)C(=O)NCC1OCCN1S(=O)(=O)c1ccc2c(c1)OCCO2 (stereo not drawn),u,-10%,-21%,-5%,4%,-13%,u,-2.9%
COc1ccc(C(=O)CSc2nc3cccnc3n2C)cc1,-9%,-20%,1%,17%,u,2%,6%,-3.0%
COCCNc1nnc(SC(C)C(=O)Nc2ccc(-c3nc4ccc(C)cc4s3)cc2)s1 (stereo not drawn),u,-20%,17%,8%,u,u,29%,-4.0%
O=C(N/N=C/c1cccnc1)c1cccc(Br)c1,x,27%,u,-2%,x,x,-10%,x
Cc1ccc(-n2ncc3c(=O)[nH]cnc32)c(C)c1,3%,13%,1%,2%,19%,-6%,2%,2.9%
Cc1ccccc1CNC(=O)c1cnc2sc(N3CCOCC3)nn2c1=O,4%,-14%,x,x,x,13%[46.1 µM],x,-3.0%
Cc1oc2cc3oc(=O)c(CC(=O)NCCC(=O)O)c(C)c3cc2c1C,x,-2%,2%,11%,-1%[46.1 µM],u,-6%,x
O=C(Oc1ccc2c(=O)c(Oc3ccc4ccccc4c3)coc2c1)c1cncc(Br)c1,3.2µM*,-1%,-8%,18%,7%[46.1 µM],-17%,-4%,5.0%
COC(=O)c1cc2ccsc2n1CC(=O)Nc1ccc(N(C)C)cc1,u,x,-7%,9%,-5%,11%,u,-1.7%
COc1ccccc1N1CCN(C(=O)CSc2nc3ccccc3o2)CC1,-4%,14%,-12%,-2%,u,11%,-68%,0.9%
CS(=O)(=O)N(CC(=O)Nc1ccccc1C(=O)NCc1ccco1)c1ccc2c(c1)OCCO2,0%,-7%,-11%,1%,u,-18%,-2%,-1.3%
COc1cccc(NC(=S)NCc2cccnc2)c1,-4%,37%[activator],0%,-8%,4%,23%,24%,-3.0%
O=C(COC(=O)c1cc(-c2ccccc2Cl)nc2ccccc12)Nc1ncc(C(F)(F)F)cc1Cl,u,-16%,10%,4%,-3%,10%,1%,-11%
CCC(=O)C1=C(N2CCCC2)CC(C)(C)CC1=O,-9%,-18%,3%,19%,3%[46.1 µM],3%,-2%,2.8%
COc1ccc(N(CC(=O)Nc2ccc(C)c(C)c2)S(=O)(=O)c2c(C)n[nH]c2C)cc1,u,0%,9%,13%,4%,1%,-4%,-6.5%
C=CCn1c(O)c(/C=N/N2CCCCC2)c(=O)[nH]c1=O,x,-16%,1%,9%,u,-18%[46.1 µM],2%,x
CCCCN(CC)CCCNC(=O)c1csc2c1CCCCC2,x,u,1%,-8%,u,-25%,x,x
COc1cccc(C(=O)Nc2c3c(nc4c2CCC4)CCCC3)c1,6%,-19%,10%,x,u,2%,-2%,-4.1%
O=C(/C=C/c1ccccc1Cl)c1ccc(O)cc1,x,13%,-8%,-5%,u,-20%,-68%,x
CCOc1cc(C(=O)Nc2ccc(S(=O)(=O)Nc3onc(C)c3C)cc2)cc(OCC)c1OCC,x,0%,-7%,1%,14%,-2%,x,x
CC(C)N(Cc1nc(-c2ccc(Cl)cc2)no1)C(=O)/C=C/c1ccccc1,3%,-7%,-37%,21%,-16%,u,1%,-7.3%
COc1ccc2c(c1)[nH]c1c(=O)n(CCC3=CCCCC3)cnc12,u,-1%,-3%,11%,-5%,0%,2%,2.1%
Cc1ccc2cc3cc(C(=O)N(CC(=O)NC4CCCC4)c4cccc(C)c4C)sc3nc2c1,u,-10%,3%,-6%,u,-27%,6%,1.5%
CCC(=O)Nc1cc(C(=O)O)ccc1Sc1ccc(Cl)cc1,x,-16%,-1%,8%,u,4%[46.1 µM],x,x
COc1cc2oc(=O)cc(-c3ccc(-c4ccc(F)c(Cl)c4)cc3)c2c(OC)c1OC,-16%,-26%,-16%,0%,x,x,x,4.0%
O=C(CSc1nc2ccccc2nc1Cc1ccccc1)N1CCc2ccccc21,-19%,-1%,x,x,x,-1%[46.1 µM],x,3.6%
CCCSC1=C(C#N)C(c2cccnc2)C(C(=O)OCC)=C(c2ccccc2)N1 (stereo not drawn),-5%,0%,2%,-11%,u,u,0%,-3.5%
COC(=O)c1ccc(NC(=O)Nc2ccc(F)c(Cl)c2)cc1,-5%,-48%,-18%,22%,4%,0%,-53%,-12%
CCN1C(=O)CC(N2CCC(C(=O)N3CCOCC3)CC2)C1=O (stereo not drawn),-4%,-24%,-1%,u,-19%,20%,u,1.9%
O=C(CSc1cccc2cccnc12)OCC(=O)c1ccc(Br)cc1,-2%,-8%,5%,14%,-17%,-6%,12%,-0.1%
O=C(Cn1cnc2ccccc2c1=O)NNC(=O)c1ccccc1F,x,-13%,x,4%,11%,19%,x,x
Cc1cnc(=O)[nH]c1SCC(=O)Nc1nc2ccccc2s1,4%,81%[activator],x,x,x,30%[46.1 µM],x,-1.6%
Cn1c(OCc2ccc3c(c2)OCO3)nc2c1c(=O)n(Cc1cccc(Cl)c1)c(=O)n2C,x,-22%,x,1%,4%&4%,-1%,x,x
COc1ccc(-c2c(C)cc3oc(=O)cc(-c4ccccc4)c3c2C)cc1,32µM*,u,10%,-6%,x,x,x,-1.9%
Cn1c(=O)oc2cc(S(=O)(=O)N3CCC(C(=O)N4CCN(c5ccccc5F)CC4)CC3)ccc21,u,-2%,x,x,-1%[46.1 µM],-8%[46.1 µM],x,-1.2%
COc1ccccc1OCCn1cc(/C=N/n2cnnc2)c2ccccc21,u,-5%,-15%,-2%,-13%,u,-10%,-14%
CCOC(=O)c1nnn(-c2nonc2NC(C)=O)c1C,-10%,0%,u,15%,u,-12%,1%,7.8%
COc1ccc(NC(=O)c2c(N)no[n+]2[O-])cc1,x,44%[activator],1%,3%,-24%[46.1 µM],u,x,x
COc1ccc(NC(=O)CCN2CCN(CCO)CC2)c(OC)c1,-8%,-9%,x,x,-26%[46.1 µM],-1%[46.1 µM],x,-2.1%
Fc1ccccc1Cn1c(-c2ccccc2)nc2ccccc21,3%,u,x,x,-19%[46.1 µM],u,x,1.0%
CCN(CC)c1ccc(S(=O)(=O)N2CCCCC2)cc1NC(=O)C1=COCCO1,x,-29%,5%,3%,u,-10%,x,x
COc1ccc(C(=O)Nc2ccnn2C2CCN(C(=O)c3cccnc3)CC2)cc1,x,7%,-14%,-5%,13%,3%,-1%,x
Cn1nnnc1SCC(=O)Nc1ncc(Cl)cc1Cl,x,-8%,1%,-13%,17%,-5%,x,x
CCOc1ccccc1NC(=O)C(CC)Sc1nc2ccsc2c(=O)n1CCC(=O)O (stereo not drawn),x,-14%,3%,0%,x,x,22%,x
CNC(=O)Cn1nc(-c2ccc(C)c(S(=O)(=O)N(C)C)c2)c2ccccc2c1=O,11%,-16%,-26%,24%,-12%,11%,1%,1.8%
COc1ccc2cc(C(N)=O)/c(=N/NC(=O)c3ccco3)oc2c1,-2%,-10%,2%,x,20%,11%,1%,-7.5%
O=C(COC(=O)CC(NC(=O)c1ccccc1Cl)c1ccccc1)Nc1cccc(F)c1 (stereo not drawn),5%,-21%,24%,-3%,0%,x,-19%,-9.9%
Cc1c(C(=O)O)cccc1-c1ccc(/C=N/n2cnnc2)o1,x,0%,-1%,10%,3%[46.1 µM],u,2%,x
COc1cc(OC)c(/C=N/NC(=O)c2ccc([N+](=O)[O-])cc2)cc1Br,-6%,8%,11%,6%,u,-1%,-1%,5.1%
COc1ccc(C(=O)NC(CC(=O)O)c2cc([N+](=O)[O-])ccc2Cl)cc1 (stereo not drawn),x,0%,0%,14%,28%[46.1 µM],0%,x,x
COc1ccc(NC(=O)CC2C(=O)N(c3cccc(OC)c3)C(=O)N2Cc2ccco2)cc1 (stereo not drawn),x,u,-1%,5%,x,x,-3%,x
O=C(NCc1ccncc1)c1ccc(Cl)c(S(=O)(=O)N2CCOCC2)c1,1%,-10%,5%,-23%,-9%&-9%,u,0%,1.1%
Cc1ccccc1Cn1c(C)c(CNCCCc2ccccc2)c(C(=O)O)c1C,7%,-9%,x,x,-32%[46.1 µM],u,x,-3.6%
COCC(=O)Nc1ccc(S(=O)(=O)NCC2CCCO2)cc1 (stereo not drawn),x,-2%,0%,-7%,5%,4%,0%,x
COc1ccc(NC(=O)c2cc3c(=O)n(Cc4cccnc4)ccc3nc2C)cc1Cl,u,-12%,x,x,x,-9%[46.1 µM],x,2.4%
O=C(Cc1nn[nH]n1)NCc1ccccc1Cl,5%,-7%,7%,5%,6%,0%,-4%,0.6%
O=C(Nc1cccc(Cl)c1)Nc1ccc2c(c1)C(=O)OC2,-6%,5%,18%,-6%,-4%,0%,9%,2.2%
CCOC(=O)c1oc2ccc(Br)cc2c1COC(=O)C1=COCCO1,x,-1%,1%,-8%,-11%[46.1 µM],8%,x,x
CCOc1ccccc1NC(=O)c1cnccn1,x,-19%,u,2%,x,x,-18%,x
CCc1cccc(NS(=O)(=O)c2ccc3c(c2)NC(=O)CO3)c1,x,40%[activator],8%,11%,x,x,3%,x
CCOc1cnc(-c2ccccc2F)o1,x,0%,0%,-1%,-10%[14.2 µM],-3%,x,x
O=C(COC(=O)C(Cc1ccccc1)NC(=O)c1ccco1)NC1CC1 (stereo not drawn),0%,6%,5%,11%,4%,-1%,1%,-0.4%
O=C(COC(=O)COc1ccc2ccccc2c1)NC1CCCc2ccccc21 (stereo not drawn),4%,6%,0%,-13%,-4%,u,-28%,-8.3%

# 2 compounds from above with just SARS PLP yeast.
Compound | SARS PLP yeast
CCN(CC)c1ccc(S(=O)(=O)N2CCCCC2)cc1NC(=O)C1=COCCO1 | 5%
COc1ccc(C(=O)Nc2ccnn2C2CCN(C(=O)c3cccnc3)CC2)cc1 | -14%
